High-throughput results deposited in PubChem by several laboratories.
HSV replic up: HSV replication enhancement | HSV replication augmentation in cells, fold increase | maximum fold increase | 220,000 tested, 0.005% active | AID 1956;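 active = peak rise of 1.5-fold or more in the series; inconclusive = self-fluorescent or not available for retest; tested in PC3 cells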;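 also: first round at 10 µM; read as green reporter fluorescence; hits show the peak of a series up to 25 µM; 1 = signal of infected wells without compound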
RGS16-Gao: RGS16-Galphao interaction regulator (human); AID 1441; binding response (% of control), % at 10 µM; O15492+P09471; 220,000 tested, 0.38% active; bead-based flow cytometry RGS16-Galphao binding, fluorescence; actives lie on both sides;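 active = below 25% or above 175%, edge rows of some plates excepted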;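 also: Galphao activated by GDP with aluminum fluoride before binding; 100% = wells without compound and 0% = beads without RGS; some results beyond the cut were filed as inactive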
Target sequence (O15492 whole entry, looked up): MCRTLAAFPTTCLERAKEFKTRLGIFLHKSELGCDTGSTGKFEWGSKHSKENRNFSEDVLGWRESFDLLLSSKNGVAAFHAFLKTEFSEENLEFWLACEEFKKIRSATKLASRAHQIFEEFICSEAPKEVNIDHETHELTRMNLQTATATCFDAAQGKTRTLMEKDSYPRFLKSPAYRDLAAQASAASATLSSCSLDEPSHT
Target sequence (P09471 whole entry, looked up): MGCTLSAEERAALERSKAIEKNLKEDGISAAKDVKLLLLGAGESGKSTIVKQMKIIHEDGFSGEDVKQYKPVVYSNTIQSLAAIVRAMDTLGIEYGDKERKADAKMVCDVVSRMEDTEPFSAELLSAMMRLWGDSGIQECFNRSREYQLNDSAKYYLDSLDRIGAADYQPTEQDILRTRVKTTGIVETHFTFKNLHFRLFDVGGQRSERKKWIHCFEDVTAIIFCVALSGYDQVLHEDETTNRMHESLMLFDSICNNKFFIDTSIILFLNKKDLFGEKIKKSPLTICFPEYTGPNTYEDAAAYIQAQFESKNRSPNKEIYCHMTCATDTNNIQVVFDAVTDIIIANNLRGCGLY
INS promoter inh: TRM-6 insulin promoter activity inhibition; TRM-6 cells (human fetal islet line), insulin promoter-eGFP reporter, imaging; reporter expression induced with tamoxifen; inhibition, % at 2 µM; 130,000 tested, 0.9% active;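 active = inhibition above the mean plus 3 SD, with well images judged a real hit on visual review, cut at about 60% in these data, passing the limit was not always enough; inconclusive = inhibition over the cutoff but images rejected on review; inactive = inhibition not above the cutoff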
PKD1 inh: PKD1 (human) kinase inhibition; PKD1 kinase fluorescence polarization assay; inhibition, %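 (about 10 µM by stock and volumes)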; Q15139; AID 797; 200,000 tested, 0.056% active;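 active = inhibition of 50% or more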;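 also: controls were vehicle for no effect and a reference inhibitor for full effect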
GALR2 ag: agonists of human galanin receptor 2 (GALR2); 140,000 tested, 0.48% active; O43603; AID 803; GALR2-expressing cells, agonist activation read-out; activation, %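 (tested at 5 µM)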;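 active = above mean plus 3 SD of all compounds, about 5% in these data, not always enough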;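 also: 0% = vehicle buffer wells and 100% = reference agonist at full effect; tested in CHO reporter cells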
Target sequence (O43603 whole entry, looked up): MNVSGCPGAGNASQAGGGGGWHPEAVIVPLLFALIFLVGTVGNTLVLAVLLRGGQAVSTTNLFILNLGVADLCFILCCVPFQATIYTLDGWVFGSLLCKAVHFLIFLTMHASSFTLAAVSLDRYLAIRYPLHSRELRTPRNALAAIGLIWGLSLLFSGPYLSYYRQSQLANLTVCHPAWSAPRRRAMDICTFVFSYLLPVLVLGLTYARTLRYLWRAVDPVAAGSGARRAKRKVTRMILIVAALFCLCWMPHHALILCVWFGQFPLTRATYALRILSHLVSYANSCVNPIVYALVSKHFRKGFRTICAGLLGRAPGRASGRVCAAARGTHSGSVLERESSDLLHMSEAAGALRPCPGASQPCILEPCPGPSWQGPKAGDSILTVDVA
INS promoter inh cell count: also measured in INS promoter inh; calls as there; normalized cell count, %; measured here: cell count, toxicity; reference of the scale not given here;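 cells exposed to compound for 48 h; stained nuclei by imaging scaled within each plate; lower means fewer cells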
HSV replic up primary fold: further read-out of HSV replic up, marked with its call; fold increase; compound at 10 µM; measured here: primary screen fold increase 10 uM; tested in PC3 cells;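 GFP signal in the first replicate; 1 = infected wells without compound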
Starred values were filed as active, the others as inactive; i = inactive; u = inconclusive; x = not tested or not shown.

Start of the data: the first 4 entries as a preview:
SMILES	HSV replic up	HSV replic up primary fold	RGS16-Gao	INS promoter inh	INS promoter inh cell count	PKD1 inh	GALR2 ag
Cc1ccc(NC(=O)CC2C(=O)NCCN2C(=S)Nc2ccccc2)c(C)c1 (stereo not drawn)	i	1.02	103.2	x	x	-1.4	-0.6
CN(CC(=O)Nc1ccc(N2CCOCC2)cc1)CC(=O)Nc1ccccc1C#N	i	1.16	95.8	x	x	-2.4	-1.1
Cc1ccc(C(=O)NNC(=O)c2ccccc2-n2cccc2)cc1	i	0.86	97.9	-13.3	144.3	-1.1	x
Cc1ccc(NC(=O)c2cc(N3C(=O)C4CC=CCC4C3=O)ccc2N2CCOCC2)cc1Cl (stereo not drawn)	i	0.91	105.1	-91.4	88.2	-14.1	-0.2

Results (from the top)
SMILES	HSV replic up	HSV replic up primary fold	RGS16-Gao	INS promoter inh	INS promoter inh cell count	PKD1 inh	GALR2 ag
Cc1ccc(NC(=O)CC2C(=O)NCCN2C(=S)Nc2ccccc2)c(C)c1 (stereo not drawn)	i	1.02	103.2	x	x	-1.4	-0.6
CN(CC(=O)Nc1ccc(N2CCOCC2)cc1)CC(=O)Nc1ccccc1C#N	i	1.16	95.8	x	x	-2.4	-1.1
Cc1ccc(C(=O)NNC(=O)c2ccccc2-n2cccc2)cc1	i	0.86	97.9	-13.3	144.3	-1.1	x
Cc1ccc(NC(=O)c2cc(N3C(=O)C4CC=CCC4C3=O)ccc2N2CCOCC2)cc1Cl (stereo not drawn)	i	0.91	105.1	-91.4	88.2	-14.1	-0.2
O=C(c1ccccc1)c1ccc(COC(=O)c2cnccn2)cc1	i	0.89	103.2	x	x	2.2	x
COc1ccc2c(c1)[nH]c1c(=O)n(CCCN3CCOCC3)cnc12	i	0.95	105.9	28.1	54.3	-4.4	-2.0
O=C(N[C@@H](Cc1c[nH]c2ccccc12)C(=O)O)c1ccc(Cl)cc1	i	1.02	106.0	40.0	149.1	0.8	x
Cc1ccccc1S(=O)(=O)Cc1ccc(C(=O)N2CCN(c3cccc(C)c3C)CC2)o1	i	0.82	96.5	x	x	3.1	-0.2
CCOC(=O)C(=O)Nc1ccc(F)cc1	i	0.983	105.1	-4.2	82.9	-7.5	-1.9
CCOC(=O)c1c(-c2ccccc2)nnn1-c1nc(OCC)nc(N2CCCCC2)n1	i	0.77	91.8	x	x	-13.6	-0.5
O=C(COc1ccc(F)cc1)NCC1CCCO1 (stereo not drawn)	i	0.94	104.0	-118.8	73.5	-6.8	-2.7
O=[N+]([O-])c1ccccc1SN(Cc1ccccc1)c1ccccn1	i	1.1	97.7	-25.0	114.5	0.9	-0.7
O=C1C(Cl)=C(NCCc2ccccc2)C(=O)N1CCc1ccccc1	i	1.02	104.6	8.7	97.2	-1.8	-1.1
CCN1C(=O)/C(=C/c2ccc(C)s2)NC1=S	i	0.93	99.9	-3.7	86.0	-1.8	-1.7
O=C(Nc1nc(-c2cccs2)c(-c2cccs2)s1)C1(c2ccccc2)CC1	i	1.14	97.5	x	x	-0.7	-0.3
CCC1(c2ccc(Cl)cc2)NC(=S)N(c2ccccc2)N1 (stereo not drawn)	i	1.04	96.2	44.4	142.5	-4.0	-0.5
CCC1CCCCN1CCCNC(=O)c1cn(CC(C)C)c(=O)c2cc(OC)c(OC)cc12 (stereo not drawn)	i	0.95	99.2	-13.5	119.0	3.2	-2.1
COc1ccc(C2c3c(oc4ccccc4c3=O)C(=O)N2c2ccc(C)cn2)cc1OC (stereo not drawn)	i	0.94	94.0	x	x	-6.7	-1.1
COC(=O)c1cccc(C23CC4(C2)[C@H](CN(Cc2cccnc2)[C@@H]4c2ccccc2)C3c2ccc(C(F)(F)F)cc2)c1 (stereo partly drawn)	i	0.82	102.1	x	x	x	x
O=C(/C(=N/N=C/c1ccc(O)c(O)c1O)c1ccccc1)c1ccccc1	i	0.91	91.8	25.8	125.1	-3.0	-1.2
CC1CCCN(C(=O)COC(=O)c2ccc[nH]c2=O)C1 (stereo not drawn)	i	1.34	100.5	28.6	99.3	-0.7	-2.6
COC(=O)CN1CCN(C(c2ccccc2)c2ccccc2)CC1	i	0.94	101.4	-7.9	40.0	-1.7	0.5
Cc1cccc(N(CC(=O)NC2CCCC2)C(=O)CS(=O)CC(=O)Nc2ccc3c(c2)OCO3)c1 (stereo not drawn)	i	0.91	96.2	-30.3	133.3	-4.5	-1.1
CN1CCN(c2cc(-c3ccccc3)nc3cc(-c4ccc(F)cc4)nn23)CC1	i	0.69	103.1	x	x	-2.1	0.6
Cc1cccc2c(=O)cc(C)n(CC(N)=O)c12	i	0.84	98.8	x	x	x	x

The list continues:
SMILES	HSV replic up	HSV replic up primary fold	RGS16-Gao	INS promoter inh	INS promoter inh cell count	PKD1 inh	GALR2 ag
CCOC(=O)c1cnn(-c2nc(-c3ccc(F)cc3)cs2)c1C(F)(F)F	i	0.85	104.1	-20.0	143.9	4.9	0.4
CCC(C(=O)OCC(=O)Nc1ccc(Cl)c(S(=O)(=O)N(C)C)c1)c1ccccc1 (stereo not drawn)	i	0.95	105.1	-11.1	118.1	-19.6	0.5
Cc1cccc(NC(=S)NCc2cccn2C)c1	i	0.99	102.4	25.0	129.7	-13.3	-3.0
O=C(CSc1nnnn1-c1ccc(O)cc1)Nc1ccc(N2CCOCC2)c(Cl)c1	i	0.87	99.4	13.3	114.4	1.1	-0.1
C/C(=N\NC(=O)CCc1ccccc1)c1ccc(Br)cc1	i	0.97	97.3	x	x	-1.9	x
Cn1c(C(=O)N2CCC(C(=O)N3CCOCC3)CC2)cc2sccc21	i	0.88	111.1	10.0	48.2	5.0	-3.1
Cc1ccc(C(=O)Nn2cnnc2)cc1[N+](=O)[O-]	i	0.94	x	-233.3	133.3	-1.9	-3.3
O=C(O)c1nn(-c2ccc(Cl)cc2)ccc1=O	i	0.87	98.9	-50.0	41.2	-0.1	-0.5
CC(=O)c1cccc(NC(=O)CN(c2ccccc2)S(C)(=O)=O)c1	i	0.82	99.1	x	x	-3.4	-1.6
Nc1cc(-c2ccc(Cl)cc2)nn1S(=O)(=O)c1ccccc1	i	0.93	101.3	x	x	3.5	-1.6
O=C(CSC1=Nc2ccccc2C2CC=NN12)Nc1ccc(F)cc1Cl (stereo not drawn)	x	x	100.7	28.6	111.5	0.0	x
Cc1ccc(OC(=O)C2c3ccccc3Oc3ccccc32)cc1C	i	1.03	101.1	31.0	71.3	-6.1	0.9
O=C(NCc1ccccc1)C1=C[C@@H](c2ccc(Br)cc2)C[C@@H](OCCCCO)O1	i	1.13	107.0	x	x	-3.9	x
Cc1ccc(O)c(-c2cc(C(=O)Nc3ccc(S(=O)(=O)Nc4nccc(C)n4)cc3)[nH]n2)c1	i	0.91	104.2	x	x	x	x
CC1CCCC(NC(=O)C2CCN(S(=O)(=O)N3CCCCCC3)CC2)C1C (stereo not drawn)	i	0.97	97.4	-33.3	112.9	-2.5	-1.2
COc1ccc(CCN=C(N)Nc2nc(C)cc(C)n2)cc1	i	0.87	105.7	x	x	-2.9	x
CCCn1nnnc1-c1cccc(Cl)c1	i	1.19	95.4	35.6	139.5	-2.0	0.6
O=C1C2C3C=CC(C4CC34)C2C(=O)N1c1ccc2c(c1)OCO2 (stereo not drawn)	i	0.87	99.9	-12.5	107.6	-0.9	x
CCn1c(SCc2ccc(C(=O)Nc3nccs3)cc2)nnc1-c1ccc(NC(C)=O)cc1	i	1.04	89.0	x	x	-1.3	-2.4
CC(C)N1CC=C2C(C#N)=C(N)C(C#N)(C#N)[C@H](c3ccoc3)[C@H]2C1	u	x	100.1	-161.3	144.8	6.3	1.2
Cc1nc2ccc(C(=O)N3CCN(c4ccccc4)CC3)cc2s1	i	0.92	100.7	18.8	156.5	-7.3	-1.8
O=C(C1Cc2ccccc2CN1C(=O)c1ccccc1)N1CCN(c2ccccc2)CC1 (stereo not drawn)	i	1.05	98.3	x	x	x	x
O=C(Nc1cccc(-c2nc3ccccc3[nH]2)c1)c1ccco1	i	0.8	96.7	57.1	171.8	-6.1	-1.3
CCOC(=O)c1ccc(CC2S/C(=C(\C#N)C(C)=O)NC2=O)cc1 (stereo not drawn)	i	1.17	105.8	-25.8	107.5	2.7	0.9
Clc1ccc2c(NNc3ccccc3Cl)ccnc2c1	i	0.88	90.1	x	x	5.8	-3.1

An excerpt taken from the entries so far, as a working copy:
SMILES	HSV replic up	HSV replic up primary fold	RGS16-Gao	INS promoter inh	INS promoter inh cell count	PKD1 inh	GALR2 ag
CCOC(=O)c1cnn(-c2nc(-c3ccc(F)cc3)cs2)c1C(F)(F)F	i	0.85	104.1	-20.0	143.9	4.9	0.4
CCC(C(=O)OCC(=O)Nc1ccc(Cl)c(S(=O)(=O)N(C)C)c1)c1ccccc1 (stereo not drawn)	i	0.95	105.1	-11.1	118.1	-19.6	0.5
Cc1cccc(NC(=S)NCc2cccn2C)c1	i	0.99	102.4	25.0	129.7	-13.3	-3.0

Other structures.
SMILES	HSV replic up	HSV replic up primary fold	RGS16-Gao	INS promoter inh	INS promoter inh cell count	PKD1 inh	GALR2 ag
COc1cccc(-c2c(C#N)c(SC)nc3cc(C)nn23)c1	i	1.02	107.3	x	x	x	x
Cc1ccc(C)c(N2CCN(C(=O)C3CCN(c4nc(C)cc(C)n4)CC3)CC2)c1	i	1.07	98.5	29.0	100.3	-7.6	-1.4
O=C(c1cccc(Br)c1)N1CCN(S(=O)(=O)N2CCOCC2)CC1	i	0.79	101.4	26.7	147.8	-6.2	x
Cc1cc(C)n(-c2cc(Oc3ccccc3)ncn2)n1	i	1.28	108.5	-16.7	183.6	-6.0	-2.8
CCN(CCNC(=O)CC1Oc2ccccc2NC1=O)c1ccccc1 (stereo not drawn)	i	1.06	104.4	x	x	11.9	-2.2
C=CCN1C(c2ccccc2)=CS/C1=C(/C#N)c1nnc(N2CCOCC2)n1-c1ccccc1	i	0.98	107.2	x	x	-10.9	0.2
CC(=O)c1cccc(NC(=O)C2CC(=O)N(Cc3ccccc3)C2)c1 (stereo not drawn)	i	1.05	94.5	57.1	86.5	-2.0	-1.6
CCn1cc([N+](=O)[O-])c(C(=O)NCc2ccc(Cl)cc2)n1	i	0.9	107.2	x	x	-11.8	x
C=CCN(C#N)c1nc(OC)nc(N2CCCC2)n1	i	0.91	100.9	51.4	118.2	-10.0	0.6
CCn1nnc2cc(C(=O)O)ccc21	i	1.02	104.5	x	x	x	x
Cc1occc1C(=O)NN=C1C2CC3CC(C2)CC1C3	i	0.76	103.0	-61.1	60.2	-1.8	-1.1
CCn1c(SCC(=O)N2CCCCC2)nc(O)cc1=O	i	1.17	104.9	-44.2	81.6	-5.1	-2.2
O=C(CC(=O)c1ccccc1)Nc1ccc2c(c1)OCCO2	i	0.88	100.6	x	x	-6.0	-1.2
CC(C)OC(=O)c1c(NC(=O)c2cnn3c2NC(c2ccccc2)CC3C(F)(F)F)sc2c1CCCC2 (stereo not drawn)	i	0.9	101.1	-1.4	76.6	1.1	-1.6
COc1ccc(/C=C/C(=O)O/N=C(\N)c2ccccc2)cc1OC	i	1.2	109.9	-157.1	100.5	10.8	-0.3
Cc1cc(C)n(-c2nc3c(c(=O)[nH]c(=O)n3C)n2Cc2ccccc2)n1	i	0.94	108.5	30.8	97.7	0.3	-3.7
OCCN(CC#CCn1c2ccccc2c2ccccc21)CCO	i	1.01	100.5	x	x	x	x
COc1ccc2c(C)cc(SCC(=O)Nc3cccnc3Cl)nc2c1	i	1.15	99.7	-11.8	126.2	-1.4	x
O=C(CSc1nnc(-c2ccncc2)n1Cc1ccco1)N1c2ccccc2Sc2ccc(Cl)cc21	i	0.98	99.3	43.8	142.4	7.1	-0.5
Cn1c(=O)[nH]c(=O)c2c1nc(N1CCN(c3cccc(Cl)c3)CC1)n2CCCc1ccccc1	i	0.85	100.7	-93.8	132.2	-0.7	0.1
COC(=O)CSc1nnc(-c2ccco2)n1Cc1ccco1	i	1.03	119.4	28.6	141.8	-3.0	0.9
Cc1ccc(NC(=O)/C=C\C(=O)O)c([N+](=O)[O-])c1	i	1.1	105.5	x	x	-4.5	-3.6
COc1ccc(C2CCN(CC(=O)N(C)C)CC2O)cc1 (stereo not drawn)	i	0.96	105.6	0.0	116.6	11.6	x
Cc1cc(C)cc(C(=O)NCC(=O)OCC(=O)Nc2ccc(C)cc2Br)c1	i	0.87	102.6	0.0	108.1	1.4	x
Cc1c(Cl)cccc1NC(=S)N1CCOCC1	i	1.13	106.6	-54.8	130.5	2.4	-0.3
COc1ccccc1N1CCN(C(=O)c2ccncc2)CC1	i	0.96	113.4	x	x	-1.2	0.0
O=C(O)c1cccc(NC(=O)c2cccc(S(=O)(=O)N3CCc4ccccc4C3)c2)c1	i	0.84	105.1	x	x	-6.1	x
Cc1ccc(-c2noc(-c3ccno3)n2)cc1	i	0.95	100.1	x	x	x	x
Cc1csc2nc(CSc3nc4ccccc4o3)c(Br)n12	i	1.02	99.0	13.5	80.3	8.3	1.4
